High-throughput results: PubChem, National Center for Advancing Translational Sciences (NCATS)
VDR inh: blocks the human vitamin D receptor. P11473. VDR-SRC2-3 peptide fluorescence polarization, 2 h. Potency, µM, for inactives: max response, negative = inhibition, hits mostly inhibitors. AID 504847. actives 0.93% (n = 400,000); active = well fitted inhibition curve with a large enough effect; inconclusive = small, poorly fitted or top-dose-only effect, or another doubt; inactive = no such curve, though single readings can be large or run the other way; note: series mostly up to about 120 µM
Target sequence (P11473 whole entry, looked up): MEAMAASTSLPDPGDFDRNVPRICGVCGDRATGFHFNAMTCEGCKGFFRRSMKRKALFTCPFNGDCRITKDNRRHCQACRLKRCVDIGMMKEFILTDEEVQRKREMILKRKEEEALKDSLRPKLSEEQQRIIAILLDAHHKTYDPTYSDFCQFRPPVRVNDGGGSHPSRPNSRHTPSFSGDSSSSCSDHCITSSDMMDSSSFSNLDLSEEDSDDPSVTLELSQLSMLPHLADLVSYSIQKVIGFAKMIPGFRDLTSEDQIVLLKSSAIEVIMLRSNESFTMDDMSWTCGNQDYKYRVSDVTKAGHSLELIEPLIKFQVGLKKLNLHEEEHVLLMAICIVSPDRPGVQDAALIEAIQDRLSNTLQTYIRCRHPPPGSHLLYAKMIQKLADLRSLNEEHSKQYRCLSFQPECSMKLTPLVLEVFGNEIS
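Two reagent solutions held at 4 deg C in the dark were dispensed, compounds pinned at 23 nl, and the mixture incubated 2 h at room temperature. Read-out: fluorescence polarization of VDR–SRC2-3 peptide binding.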
* marks the source's active call; other numbers are inactive results; ? = inconclusive; & = joins results of further samples; [ ] = dose if it differs, or a comment. % is set by controls: 0 for no effect and ±100 for the full control effect; potency is the fitted concentration of half-maximal effect.

SMILES	VDR inh
Cc1ccc2[nH]c(=O)c(CN(CCc3ccccc3)Cc3nnnn3CC3CCCO3)cc2c1 (stereo not given)	-5%
CCOC(=O)N1CCN(c2ccc(O)cc2)CC1	-17%
O=C(CSc1ccc(-c2ccccc2)nn1)c1cccs1	5%
O=S(=O)(c1ccc(S(=O)(=O)N2CCN(C3CCCCC3)CC2)cc1)N1CCCCCC1	-6%
Cc1cc(CNCCN(C)C)c(C)n1-c1cc(S(=O)(=O)N2CCOCC2)ccc1N1CCCC1	-14%
CCNc1ccccc(-c2ccc3ccccc3n2)c1=O	-27%
N[C@H](Cc1cc(I)c(Oc2cc(I)c(O)c(I)c2)c(I)c1)C(=O)O	-13%
Cc1cccc(-n2nc3c(c2NC(=O)CCC2CCCCC2)CS(=O)C3)c1C (stereo not given)	-2%
COc1ccc(C[C@H]2CN3C(=NC[C@@H]3C(C)C)N2CCNC(=O)c2ccc(C)c(Br)c2)cc1	-17%
CN1C(=O)C(CC(=O)Nc2ccccc2F)N(NC(=O)c2ccc(Br)cc2)C1=S (stereo not given)	-5%
O=C(NC(=S)N1CCCc2ccccc21)c1ccccc1	-10%
Cc1ccccc1NC(=O)CSc1nc2ccc(NC(=O)COc3ccccc3F)cc2s1	1%
Clc1ccc(CN2C3=NCCCN3c3ccccc32)c(Cl)c1	-2%
COc1ccc(CNC(=O)C2CCN(Cc3nc(-c4ccc(Cl)cc4)oc3C)CC2)cc1	-7%
COC(=O)C1=C(C)NC(=O)NC1/C=C/c1ccccc1 (stereo not given)	-11%
COc1ccccc1C(=O)NCCC(=O)NCCCSc1ccccc1	-29%
O=c1[nH]c2cccnc2n1-c1ccc([N+](=O)[O-])cc1	-11%
CN(C)S(=O)(=O)c1cccc(-c2nn(-c3ccccc3)cc2/C=C(/C#N)C(=O)NCc2ccco2)c1	-10%
CC(=O)Nc1ccc(S(=O)(=O)N(C#N)c2nc(N(C)C)nc(N(C)C)n2)cc1	2%
CSc1ncc(CN2CCC(C(=O)Nc3cccc(-c4cscn4)c3)CC2)cn1	-2%

Reprinted from the part before: five entries, then new ones.
SMILES	VDR inh
COc1ccccc1C(=O)NCCC(=O)NCCCSc1ccccc1	-29%
O=c1[nH]c2cccnc2n1-c1ccc([N+](=O)[O-])cc1	-11%
CN(C)S(=O)(=O)c1cccc(-c2nn(-c3ccccc3)cc2/C=C(/C#N)C(=O)NCc2ccco2)c1	-10%
CC(=O)Nc1ccc(S(=O)(=O)N(C#N)c2nc(N(C)C)nc(N(C)C)n2)cc1	2%
CSc1ncc(CN2CCC(C(=O)Nc3cccc(-c4cscn4)c3)CC2)cn1	-2%
CCn1cc2c(n1)-c1c(oc(C(=O)Nc3ccc(Br)cc3F)c1C)CC2	2%
Cc1ccc(/C=C2/SC(=S)N(CCC(=O)N3CCOCC3)C2=O)cc1	-4%
COc1ccc(C(C)=O)cc1COC(=O)[C@H](Cc1ccccc1)NC(=O)c1ccco1	-17%
Cn1c(=O)c2c(nc(Oc3ccc(F)cc3)n2Cc2ccc(F)cc2)n(C)c1=O	8%
Cc1ccc(S(=O)(=O)N2CCN(Cc3nc4ccccc4n3C)CC2)cc1	-7%
Brc1ccc2ncnc(NCc3ccco3)c2c1	6%
NC(=O)CC(NC(=O)Cc1ccc(Br)cc1)c1ccc(N2CCC(Br)CC2)c([N+](=O)[O-])c1 (stereo not given)	-7%
CC(CCc1ccc(O)cc1)NC1c2ccccc2-c2ccccc21 (stereo not given)	-7%
COC(=O)c1nc2ccc(N3CCOCC3)cc2c(C)c1C(=O)OC	-23%
CC(O)c1nc2ccccc2n1CC(=O)Nc1ccc2c(c1)OCCO2 (stereo not given)	-6%
Cc1cc(N2CCN(c3ccccc3)CC2)nc(-c2ccccc2O)n1	-3%
COc1ccccc1NC(=O)c1c(NCc2ccc(OC)c(OC)c2OC)sc2c1CCCC2	5%
Cc1ccc(C)c(NC(=O)c2ccc3c(O)c(S(=O)(=O)c4ccc(Cl)cc4)c(=O)[nH]c3c2)c1	7%
CSc1nc2oc3c(c2c2nncn12)CC(C)(C)SC3	3%
COc1cc([N+](=O)[O-])ccc1NC(=O)NCC1CCN(Cc2ccc(Cl)cc2)CC1	-9%
CCn1c(=NC(=O)CSC(C)=O)sc2cc(OC)ccc21	-6%
CN(C)c1ccc(N2C(=NC(=O)CCC3CCCC3)SC3CS(=O)(=O)CC32)cc1 (stereo not given)	15%
C=C(C)CSc1nnc([C@H](CCSC)NC(=O)OC(C)(C)C)o1	-4%
O=C(NCc1ccccc1)N1CCOCC1	20%
c1ccc(OCCSc2nc3ccccc3o2)cc1	2%

A second format for some results above:
Cc1ccc(/C=C2/SC(=S)N(CCC(=O)N3CCOCC3)C2=O)cc1
  VDR inh = -4%
COc1ccc(C(C)=O)cc1COC(=O)[C@H](Cc1ccccc1)NC(=O)c1ccco1
  VDR inh = -17%
Cn1c(=O)c2c(nc(Oc3ccc(F)cc3)n2Cc2ccc(F)cc2)n(C)c1=O
  VDR inh = 8%
Cc1ccc(S(=O)(=O)N2CCN(Cc3nc4ccccc4n3C)CC2)cc1
  VDR inh = -7%

Other entries:
SMILES	VDR inh
COc1ccc(/C=N/N2CCN(c3ccc(Cl)cc3)CC2)cc1	9%
CCSc1cc(N2CCOCC2)nc(-c2ccc(Cl)cc2)n1	0%
COC(=O)c1ccccc1NC(=O)c1ccc(COc2ccc3c(c2)CCC3)cc1	-2%
Cc1cc2[nH]ncc2cc1NC(=S)NC(=O)c1ccccc1	-14%
CC(C)/C(=N\NS(=O)(=O)c1ccc(Br)cc1)c1cccs1	-11%
Cc1ccc(C)c(N2CCN(c3nccn4nc(-c5ccc(Br)cc5)cc34)CC2)c1	-7%
O=C(Cc1cccc(NC(=O)C2CCCN(C(=O)CCc3ccccc3)C2)c1)Nc1cccc(C(=O)N2CCCC2)c1 (stereo not given)	-8%
CCOc1ccccc1CN1CCNC(=O)C1CC(=O)NC1CCCCC1 (stereo not given)	-8%
COc1ccc(C(=O)Nc2ccc(S(=O)(=O)N3CCOCC3)cc2)cc1	-14%
COc1ccccc1NS(=O)(=O)c1cc(NC(=S)NCC2CCCO2)ccc1C (stereo not given)	0%
COc1ccc(NS(=O)(=O)c2cc(NC(=O)c3ccccn3)ccc2OC)cc1Br	13%
Cc1ccc(-c2nn(CC(=O)NCC3CCCO3)c(=O)c3ccccc23)cc1 (stereo not given)	-13%
Cc1c(CCO)c(=O)[nH]n1S(=O)(=O)c1ccc(F)cc1	-24%
Cc1cccc(NC(=O)c2cc([N+](=O)[O-])ccc2N2CCCCC2)n1	-16%
O=S(=O)(NCc1ccc2c(c1)OCO2)c1cnc[nH]1	3%
Cn1c(=O)c2c(ncn2CC(=O)OCC(=O)c2ccc(F)c(F)c2)n(C)c1=O	3%
CCC(=O)NS(=O)(=O)c1cccnc1Nc1ccc(Cl)cc1	-10%
COc1ccc(-c2nc(Cn3c(SCc4ccc(F)cc4)nc4ccncc43)c(C)o2)cc1OC	-12%
CCOC(=O)N1CC=C2C(C#N)=C(N)C(C#N)(C#N)[C@H](c3ccc(OC(C)C)c(OCC)c3)[C@H]2C1	?
COc1cccc(OC)c1C(=O)N=c1sc2cc(S(C)(=O)=O)ccc2n1C	1%
COc1ccc(NC(=O)CSc2nc(N)c3cc4c(nc3n2)CCCC4)cc1	-11%
O=C(COc1ccccc1)N1CCN(S(=O)(=O)Cc2ccccc2)CC1	4%
O=C(O)COc1nsnc1N1CCOCC1	7%
CC1(c2ccncc2)Nc2ccccc2-c2nc3ccccc3n21 (stereo not given)	8%
COc1ccc(C2=NOC(CN3C(=O)c4ccccc4S3(=O)=O)C2)cc1 (stereo not given)	10%
Cc1ccc(CN2C(=O)c3ccccc3C2C(=O)NCc2cccnc2)cc1 (stereo not given)	0%
O=C1CC(C(=O)NC2CCCCC2)C(c2ccccc2)O1 (stereo not given)	-17%
CCOC(=O)C1CCN(C(=O)c2c(-c3c(F)cccc3Cl)noc2C)CC1	4%
COc1ccccc1S(=O)(=O)Cc1ccc(C(=O)NC2CCCCCC2)o1	0%
CC(C)CCNC(=O)COc1cccc2c1OC(C)(C)C2	12%
COc1cc2c(cc1OC)C(Nn1cnnc1)=NC1(CCCC1)C2	-3%
CCOc1ccc(Cl)cc1S(=O)(=O)n1cnc2cc(C)c(C)cc21	0%
COC(=O)Cn1c(O)c(N=NC(=O)OC)c2ccccc21	0%
O=C(CSc1nc2ccccc2c(=O)n1-c1ccccc1)N/N=C/C=C/c1ccccc1[N+](=O)[O-]	-22%
COCCNc1cnn(-c2ccccc2)c(=O)c1Cl	-5%
O=S(=O)(CC(CN1CCCCC1)N1CCCCC1)c1ccc2ccccc2c1 (stereo not given)	0%
CSCC[C@H](NC(=O)OC(C)(C)C)c1nnc(SCC(=O)Nc2c(C)cccc2C)o1	-11%
O=C(NCCOCCn1c(=O)oc2ccccc21)Nc1cccc(Cl)c1	7%
CSc1nnc2ccc(-c3cccs3)nn12	10%
CCN(CC)CCNc1nc(-c2ccccc2)c2c(c1C#N)CC(C)(C)OC2	9%
CN1C(=O)/C(=C2\SC(=S)N(C(CCC(=O)O)C(=O)O)C2=O)c2ccccc21 (stereo not given)	-24%
CCN(C[C@H]1N[C@@](CC)(C(=O)OC)[C@H]2C(=O)N(C)C(=O)[C@@H]12)S(=O)(=O)c1ccc(-c2ccccc2)cc1	13%
CC(C)(C)NC(=O)C1N(c2cccnc2)C(=O)C2C(C(=O)Nc3ccccc3F)C3(C)C=CC21O3 (stereo not given)	2%
Cc1ccc(C(=O)N2CCCC(C(=O)c3cc(F)ccc3F)C2)s1 (stereo not given)	13%
O=C(OCc1nnc(-c2ccccc2)o1)c1cc2ccccc2cc1O	1%
O=C(CSc1nc2ccccc2c(=O)n1-c1ccccc1)N1CCN(CCO)CC1	-9%
COc1ccc(Cn2nnnc2C(c2cc3cccc(C)c3[nH]c2=O)N2CCN(C)CC2)cc1 (stereo not given)	-3%
COc1ccc(S(=O)(=O)N(C)C)cc1NC(=O)Cc1cccs1	15%
CC(C)c1onc(C(=O)Nc2ccc3c(c2)OCO3)c1[N+](=O)[O-]	-13%
O=C1C(=O)N(C2CCN(C(=O)c3ccc(F)cc3)CC2)CCN1Cc1ccc(F)cc1	2%
C[C@@H](CN1CCC[C@H]1CN1C(N)=NC[C@@H]1Cc1ccccc1)N1C[C@@H](Cc2ccccc2)N(CCc2ccc(Cl)c(Cl)c2)C1=N	-5%
COc1cc2c(cc1OC)C(c1ccc(-c3ccc(Cl)c(Cl)c3)o1)=NCC2	0%
COC(=O)c1nn(C23CC4CC(CC(C4)C2)C3)c2c1C(=O)N(c1ccc(Br)cc1)C2=O	7%
O=S(=O)(Nc1cccc(-c2nc3cccnc3s2)c1)c1ccc2c(c1)CCCC2	-15%
Cc1cccc(/C=C/c2onc(C)c2S(=O)(=O)N2CCC(C(=O)N3CCCCC3)CC2)c1	-15%&19%
Cc1ccc(-n2[nH]c(C)c(/C=N/Nc3ccc([N+](=O)[O-])cc3[N+](=O)[O-])c2=O)cc1	?
Cc1cccc(N(C)C(=O)CCS(=O)(=O)c2ccc3c(c2)n(C)c(=O)c(=O)n3C)c1	-3%
CCOC(=O)C1CCN(C(c2ccc(OCC)cc2)c2c(O)cc(C)n(CCOC)c2=O)CC1 (stereo not given)	?
CCn1c(=O)n(CC)c2cc(NS(=O)(=O)c3ccccc3)ccc21	8%
COCCN1Cc2cccc(C(=O)NCC3CCN(CC(C)C)C3)c2C1=O (stereo not given)	0%

(next part)
SMILES	VDR inh
Cc1ccc(C(=O)COC(=O)c2cccc(NC(=O)c3ccc(Cl)cc3Cl)c2)cc1	-15%
C=CCNc1nc(C(=O)OCC(=O)NCc2cccc(Cl)c2)cs1	-4%
CCOc1ccc(C(=O)C(C)OC(=O)Cn2[nH]c(=O)c3ccccc3c2=O)cc1 (stereo not given)	-9%
N#Cc1c(SCc2ccccc2)nc(N2CCOCC2)c2c1CCCC2	-5%
COc1ccc(NC(=S)NCCCn2ccnc2)cc1	-11%
Cc1c(C(=O)NC2CCCC2)oc2ccccc12	4%
CC(=O)NC12CC3CC(C1)CC(C(=O)N1CCN(S(=O)(=O)c4cccc([N+](=O)[O-])c4)CC1)(C3)C2	-16%
CC(=O)c1ccc(NC(=O)NC2CCCCCCC2)cc1	-1%
COc1cc(NC(=S)N2CCN(S(=O)(=O)c3ccccc3)CC2)cc(OC)c1	16%
COc1ccc(C2C(=O)c3ccccc3C2=O)cc1	-20%&-6%
COc1ccc(CC(=O)NCc2nc3cccnc3n2Cc2ccc(F)cc2)cc1OC	14%
CCOC(=O)c1nn(-c2ccccc2C)c2nc(CC(C)C)c(C#N)c(=O)n12	4%
COc1ccccc1N(O)C1CC(=O)N(c2ccc(F)cc2)C1=O (stereo not given)	?
C=CCn1c(SCC(=C)C)nc2c1c(=O)[nH]c(=O)n2C	-7%
CC(=O)c1ccc(N2CCN(C(=O)C3CCCN(c4ncnc5c4nc4n5CCCCC4)C3)CC2)cc1 (stereo not given)	-1%
CCCCN(C(=O)/C=C/c1ccco1)c1c(N)n(CCC)c(=O)[nH]c1=O	-7%
Cc1cc(NCCc2ccccc2F)n2ncnc2n1	-10%
C=CCN1/C(=C(\C#N)C2=NS(=O)(=O)c3ccccc32)N(C)c2ccccc21	0%
COc1cc(NS(=O)(=O)c2ccc(Nc3nc(-c4ccccn4)cs3)cc2)nc(OC)n1	-1%
CCOC(=O)N1CCN(S(=O)(=O)c2ccc(C(=O)Nc3sc4c(c3C(N)=O)CCN(CC)C4)cc2)CC1	46%[activator]
CCOc1ccccc1OCCCC(=O)N1CCN(S(=O)(=O)c2cc(F)ccc2F)CC1	-9%
Oc1ccc(/C=N/NC(=S)NCC2CCCO2)cc1 (stereo not given)	10%

These rows are one share of the data. The share of hits here may be higher or lower than overall.
